Screens from PubChem.
CSC inhib: cancer stem cell viability inhibitors, primary screen, luminescence. cancer stem cell-like cells viability. inhibition, % at 7.5 µM. 300,000 tested, 1.1% active;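 active = mean at 75% or more and at least half the replicates too; inconclusive = mean and replicates disagree; tested in HMLE shEcad cells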;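 note: 0% = median of negative and 100% = median of positive control wells; the first replicate is given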
Rce1 inh: yeast Rce1p protease inhibitors, primary screen, biochemical, fluorescence, cell-free homogeneous; calls only; CAAX prenyl protease 2 (Saccharomyces cerevisiae (strain ATCC 204508 / S288c)), Q03530; yeast membranes, quenched prenylated peptide cleavage fluorescence; 290,000 tested, 0.27% active; AID 2563, 2010;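 active = fall in fluorescence gain of 50% or more versus controls, with final raw signal at or below 3038400; inconclusive = same 50% fall but final raw signal above 3038400; inactive = fall in fluorescence gain under 50%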;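 note: plate controls were neutral control wells for no effect and wells lacking membranes for full effect; tested at 10 µM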
Yeast UUG start: modulators of yeast start codon fidelity, primary screen, whole organism, S. cerevisiae, single point, plate reader; activity score, % at 18.7 µM; 350,000 tested, 0.13% active; S. cerevisiae UUG-firefly luciferase reporter, luminescence/redox ratio;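 active = replicate mean at a twofold rise or more, about +100% in these data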;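 note: firefly luciferase made from a UUG start codon reports start codon fidelity; reporter light over untreated wells divided by growth signal over untreated wells; some hits fall short of that in this replicate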
HIV Env fusion: inhibitors of HIV-1 Env-driven cell-cell fusion, primary screen, HeLa-JRFL effector, CEM21 target cells, luciferase; 360,000 tested, 1.1% active; inhibition, % at 12.3 µM;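 active = mean replicate inhibition score of at least 50 and every replicate individually at or above 50; inconclusive = only one of the two criteria met; inactive = mean below 50 and not all replicates reaching 50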;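 note: 0% = plate neutral controls and 100% = maraviroc near 300 nM; one replicate is shown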
PABP FP inh: PABP poly(A) RNA binding inhibitors, primary screen, biochemical, fluorescence polarization, uHTS; Polyadenylate-binding protein 1 (Homo sapiens), P11940; inhibition, % at 35 µM; 290,000 tested, 1% active; AID 2014, 2009;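 active = 50% or more with normal probe brightness, or confirmed in later tests; inconclusive = above 50% with abnormal brightness, or retests that disagree; inactive = below 50% or failed in later tests; about a fifth of its hits are not listed in these tables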;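 note: calls also rest on retests at 20 µM and on dose response follow-up; controls were probe without protein and protein plus probe with vehicle; some compounds called inactive have numbers as strong as hits; many hits fall short of the cut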
Target sequence (P11940 whole entry, looked up): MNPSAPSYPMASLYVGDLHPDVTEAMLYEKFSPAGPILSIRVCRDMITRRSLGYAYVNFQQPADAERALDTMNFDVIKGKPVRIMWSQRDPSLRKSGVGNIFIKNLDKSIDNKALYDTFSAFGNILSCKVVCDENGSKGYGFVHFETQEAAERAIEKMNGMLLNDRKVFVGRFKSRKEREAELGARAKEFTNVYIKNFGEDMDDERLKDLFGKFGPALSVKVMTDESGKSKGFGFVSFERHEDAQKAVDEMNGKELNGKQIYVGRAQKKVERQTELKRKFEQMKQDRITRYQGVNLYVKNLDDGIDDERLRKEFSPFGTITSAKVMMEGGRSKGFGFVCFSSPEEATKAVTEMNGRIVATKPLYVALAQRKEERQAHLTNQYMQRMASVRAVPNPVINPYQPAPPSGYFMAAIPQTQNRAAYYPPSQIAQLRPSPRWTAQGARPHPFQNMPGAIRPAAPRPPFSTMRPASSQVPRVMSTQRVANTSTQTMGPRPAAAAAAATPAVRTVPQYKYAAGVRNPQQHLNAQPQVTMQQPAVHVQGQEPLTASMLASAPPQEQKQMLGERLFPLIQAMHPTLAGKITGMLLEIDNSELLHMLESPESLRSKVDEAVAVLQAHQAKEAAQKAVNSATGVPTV
MT1-MMP act inh: blockers of MT1-MMP proenzyme processing, primary screen, HT1080 RFP-PRO-GFP cells, GFP/RFP fluorescence. Matrix metalloproteinase-14 (Homo sapiens), P50281. GFP/RFP ratio fluorescence, overnight; percent of plate control window, DMSO zero. GFP/RFP ratio change, % at 20 µM. 360,000 tested, 0.061% active. AID 651647, 2012;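 active = GFP/RFP ratio change of at least 30% with cell ATP level not reduced by more than half and red fluorescence within 50% of control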; note: strong numbers were not always called active
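system = RFP-PRO-GFP reporter HT1080 cells | dosing = 20 µM single dose, 1% DMSO | timing = overnight cell settling, then overnight compound exposure, 37 °C, 5% CO2 | read-out basis = GFP/RFP fluorescence ratio | controls = DMSO and RFP-L50D-GFP cell wells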
eIF4H inh: human eIF4H binding inhibitors, primary screen, translation initiation inhibitor project, biochemical, uHTS, fluorescence polarization | Eukaryotic translation initiation factor 4H (Homo sapiens), Q15056 | eIF4H fluorescence polarization binding assay | inhibition, % at 35 µM | 290,000 tested, 0.94% active | AID 2012, 2009;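 active = 50% or more with normal probe brightness, or confirmed in later tests; inconclusive = above 50% with abnormal brightness, or retests that disagree; inactive = below 50% or failed in later tests; about a fifth of its hits are not listed in these tables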;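 note: calls also rest on retests at 20 µM and on dose response follow-up; 0% = protein and probe with vehicle and 100% = probe without protein; strong numbers were not always called active; many hits fall short of the cut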
MT1-MMP act inh RFP: second read-out of MT1-MMP act inh, no call of its own (marks repeat the call); RFP signal change, %; measured here: RFP expression control read;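 0 = vehicle wells; hits needed this value within 50% of zero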
An asterisk follows results filed as active; & = joins results of further samples. Compounds were not picked by outcome. Share with any hit: about 3%.

What do the screens show for `COc1ccc(-c2nc3ccc(Cl)cn3c2NC2CCCCC2)cc1SC1CCCCC1`?
Yeast UUG start: -10; HIV Env fusion: 31; MT1-MMP act inh: -12; MT1-MMP act inh RFP: -12

What do the screens show for `CC1CCCCN1C(=O)COc1ccccc1F` (stereo not drawn)?
CSC inhib: -5; Rce1 inh: inactive; Yeast UUG start: -13; HIV Env fusion: 3; PABP FP inh: -13; MT1-MMP act inh: 10; eIF4H inh: -4; MT1-MMP act inh RFP: -1

Results for Cc1c(Cl)cccc1-n1c(SCC(=O)N2CCC(C(=O)O)CC2)nc2ccccc2c1=O ?
CSC inhib: -9; Rce1 inh: inactive; Yeast UUG start: 22; HIV Env fusion: -9; PABP FP inh: 7; MT1-MMP act inh: 7; eIF4H inh: 1; MT1-MMP act inh RFP: 6

How did CCOC(=O)N1CCC(NC(=O)c2ccc3c(c2)N=C(C)c2ccccc2S3)CC1 do in these assays?
CSC inhib: 4; Rce1 inh: inactive; Yeast UUG start: 2; HIV Env fusion: -1; PABP FP inh: -7; MT1-MMP act inh: 0; eIF4H inh: -1; MT1-MMP act inh RFP: -14

How did C=CCSc1nc2c(c(=O)[nH]1)C(c1ccccc1)C(C#N)=C(N)O2 (stereo not drawn) do in these assays?
CSC inhib: -8; Rce1 inh: inactive; HIV Env fusion: -11; PABP FP inh: 9; MT1-MMP act inh: -4; eIF4H inh: 2; MT1-MMP act inh RFP: 0

Results for CC1=NN(c2ccccc2)C(=O)/C1=C\C=C1\N(C)c2ccccc2C1(C)C ?
CSC inhib: 79*; Rce1 inh: inactive; HIV Env fusion: 12; PABP FP inh: 6; MT1-MMP act inh: 5; eIF4H inh: inconclusive; MT1-MMP act inh RFP: 0

Results for CCOC(=O)CC1C(=O)NCCN1C(=O)COc1ccc(C(C)(C)C)cc1 (stereo not drawn) ?
CSC inhib: -5; Rce1 inh: inactive; Yeast UUG start: -1; HIV Env fusion: 2; PABP FP inh: 2; MT1-MMP act inh: 2; eIF4H inh: -12; MT1-MMP act inh RFP: 0

What do the screens show for `CCc1ccccc1NC(=S)NC1CC2CCC(C1)N2Cc1ccc(F)cc1` (stereo not drawn)?
CSC inhib: 11; Rce1 inh: inactive; HIV Env fusion: -7; PABP FP inh: 4; MT1-MMP act inh: -2; eIF4H inh: -3; MT1-MMP act inh RFP: -2

How did O=C(C1CCC(=O)N(C2CC2)C1)N1CCN(c2ccccc2Cl)CC1 (stereo not drawn) do in these assays?
CSC inhib: -7; Rce1 inh: active; Yeast UUG start: -8; HIV Env fusion: 4; PABP FP inh: 3; MT1-MMP act inh: 1; eIF4H inh: -10; MT1-MMP act inh RFP: 5

Results for COC(=O)c1ccc(CN2C(=O)C(Cc3ccccc3)ON=C2c2ncccc2C)o1 (stereo not drawn) ?
Yeast UUG start: -4; HIV Env fusion: -30; MT1-MMP act inh: 4; MT1-MMP act inh RFP: 2

How did Cc1cc2oc(=O)cc(CN3CCN(S(=O)(=O)/C=C/c4ccccc4)CC3)c2cc1C do in these assays?
CSC inhib: 8; Rce1 inh: inactive; Yeast UUG start: -6; HIV Env fusion: -2; PABP FP inh: -5; MT1-MMP act inh: -4; eIF4H inh: -11; MT1-MMP act inh RFP: -7

How did COc1cccc(CNC(=O)C2CCN(S(=O)(=O)c3cccc4cccnc34)CC2)c1 do in these assays?
CSC inhib: -1; Rce1 inh: inactive; Yeast UUG start: 1; HIV Env fusion: -23; PABP FP inh: 4; MT1-MMP act inh: -4; eIF4H inh: -1; MT1-MMP act inh RFP: 3

How did CS(=O)(=O)c1ccc2nc(NC(=O)c3cc4ccccc4o3)sc2c1 do in these assays?
CSC inhib: 5; Rce1 inh: inactive; Yeast UUG start: -4; HIV Env fusion: -115; PABP FP inh: -10; MT1-MMP act inh: -9; eIF4H inh: -11; MT1-MMP act inh RFP: -2

Results for Cc1cc(NC(=O)CSc2nc3c(c(=O)n(C)c(=O)n3C)n2C(C)C)no1 ?
CSC inhib: -2; Rce1 inh: inactive; Yeast UUG start: -5; PABP FP inh: 8; MT1-MMP act inh: 3; eIF4H inh: 2; MT1-MMP act inh RFP: 1

Results for C[C@H]1CN([C@@H](C)CO)C(=O)c2cc(-c3ccccc3F)cnc2O[C@@H]1CN(C)C(=O)NC1CCCCC1 ?
Yeast UUG start: 17&11&0; HIV Env fusion: 2; MT1-MMP act inh: -1; MT1-MMP act inh RFP: 1

How did COc1ccc(NC2CCCN(C(=O)C3=NN(C)C(=O)CC3)C2)cc1OC (stereo not drawn) do in these assays?
CSC inhib: -11; Rce1 inh: inactive; Yeast UUG start: 5; HIV Env fusion: 11; PABP FP inh: -6; MT1-MMP act inh: 0; eIF4H inh: -9; MT1-MMP act inh RFP: 0

How did O=S(=O)(NCC1CC1)c1cccc(S(=O)(=O)N2CCCC2)c1 do in these assays?
CSC inhib: -9; Rce1 inh: inactive; Yeast UUG start: -4; PABP FP inh: 1; MT1-MMP act inh: -6; eIF4H inh: -1; MT1-MMP act inh RFP: -3

What do the screens show for `O=[N+]([O-])c1ccccc1S(=O)(=O)N(CC(O)CN1CCCCC1)c1ccccc1` (stereo not drawn)?
CSC inhib: -5; Rce1 inh: inactive; Yeast UUG start: -16; HIV Env fusion: -4; PABP FP inh: 3; MT1-MMP act inh: -5; eIF4H inh: 2; MT1-MMP act inh RFP: 1

How did CCc1nc2nc(C)c(NS(=O)(=O)c3ccc(F)cc3)c(=O)n2[nH]1 do in these assays?
Rce1 inh: inactive; Yeast UUG start: -8; HIV Env fusion: 12; PABP FP inh: 5; MT1-MMP act inh: 1; eIF4H inh: 6; MT1-MMP act inh RFP: 2

What do the screens show for `COc1cccc(NC(=O)c2ccc3c(c2)C(=O)N(CC2CCCO2)C3=O)c1` (stereo not drawn)?
CSC inhib: 11; Rce1 inh: inactive; Yeast UUG start: -25; HIV Env fusion: -1; PABP FP inh: 12; MT1-MMP act inh: -2; eIF4H inh: 7; MT1-MMP act inh RFP: 3

Quoted at random: 2 entries already listed.
What do the screens show for `CC1CCCCN1C(=O)COc1ccccc1F` (stereo not drawn)?
CSC inhib: -5; Rce1 inh: inactive; Yeast UUG start: -13; HIV Env fusion: 3; PABP FP inh: -13; MT1-MMP act inh: 10; eIF4H inh: -4; MT1-MMP act inh RFP: -1

Results for Cc1cc(NC(=O)CSc2nc3c(c(=O)n(C)c(=O)n3C)n2C(C)C)no1 ?
CSC inhib: -2; Rce1 inh: inactive; Yeast UUG start: -5; PABP FP inh: 8; MT1-MMP act inh: 3; eIF4H inh: 2; MT1-MMP act inh RFP: 1

Going on with the list:
What do the screens show for `CCN(CC)S(=O)(=O)c1cccc(N=Nc2sc(N)nc2C)c1`?
CSC inhib: 12; Rce1 inh: inactive; Yeast UUG start: -17; HIV Env fusion: 2; PABP FP inh: -5; MT1-MMP act inh: 7; eIF4H inh: -10; MT1-MMP act inh RFP: 2

Results for CC(NC(=O)Nc1cccc([N+](=O)[O-])c1)c1ccc2c(c1)OCO2 (stereo not drawn) ?
CSC inhib: -7; Rce1 inh: inactive; Yeast UUG start: -15; HIV Env fusion: -18; PABP FP inh: 8; MT1-MMP act inh: 4; eIF4H inh: -10; MT1-MMP act inh RFP: 1

How did CSc1ccc(S(=O)(=O)NCc2ccccc2C)cc1 do in these assays?
CSC inhib: -4; Rce1 inh: inactive; HIV Env fusion: -9; PABP FP inh: 1; MT1-MMP act inh: 4; eIF4H inh: -5; MT1-MMP act inh RFP: 3

Results for CC1CCN(Cc2nc(-c3ccccc3)no2)CC1 ?
CSC inhib: -4; Rce1 inh: inactive; Yeast UUG start: 7; HIV Env fusion: -84; MT1-MMP act inh: -3; MT1-MMP act inh RFP: 1

Results for COc1cc(/C=C/c2cc(C(=O)O)c3ccccc3n2)cc(OC)c1O ?
CSC inhib: 2; Rce1 inh: inactive; HIV Env fusion: -7; PABP FP inh: -2; MT1-MMP act inh: 5; eIF4H inh: -6; MT1-MMP act inh RFP: 2

How did CCOC(=O)c1ccccc1NC(=O)Cn1cnc2c(cnn2C(C)(C)C)c1=O do in these assays?
CSC inhib: 5; Rce1 inh: inactive; Yeast UUG start: -7; PABP FP inh: -7; MT1-MMP act inh: -4; eIF4H inh: 1; MT1-MMP act inh RFP: -6

Results for O=C(Nc1cccc(C(F)(F)F)c1)OCc1ccncc1 ?
CSC inhib: 0; Rce1 inh: inactive; Yeast UUG start: 0; HIV Env fusion: 15; MT1-MMP act inh: 1; MT1-MMP act inh RFP: -3

How did CC(Oc1ccccc1)C(=O)Nc1cccc(NC(=O)c2ccco2)c1 (stereo not drawn) do in these assays?
CSC inhib: 8; Rce1 inh: inactive; Yeast UUG start: -12; HIV Env fusion: 12; PABP FP inh: 2; MT1-MMP act inh: -3; eIF4H inh: -6; MT1-MMP act inh RFP: -3

What do the screens show for `Cc1ccccc1N(C)C(=O)C1CCCN(c2ncnc3c2nc2n3CCCCC2)C1` (stereo not drawn)?
CSC inhib: 12; Rce1 inh: inactive; Yeast UUG start: 18; HIV Env fusion: 27; MT1-MMP act inh: -1; MT1-MMP act inh RFP: -6

Results for C/C(CC(=O)Nc1ccc(N(C)C)cc1)=N\NC(=O)c1ccc(F)cc1 ?
CSC inhib: -6; Rce1 inh: inactive; Yeast UUG start: -21; HIV Env fusion: -17; PABP FP inh: -8; MT1-MMP act inh: -1; eIF4H inh: -15; MT1-MMP act inh RFP: 7

How did CC(C)Oc1ccc(C(=O)Nc2nnc(SCC(=O)N3CCOCC3)s2)cc1 do in these assays?
CSC inhib: 1; Rce1 inh: inactive; Yeast UUG start: -51; HIV Env fusion: -10; PABP FP inh: -9; MT1-MMP act inh: 1; eIF4H inh: 4; MT1-MMP act inh RFP: -2

Results for COc1ccc(CNC(=O)[C@@H]2CCCN2C(=O)[C@@H]2Cc3ccccc3CN2C(=O)OC(C)(C)C)cc1 ?
CSC inhib: -10; Rce1 inh: inactive; HIV Env fusion: 8; PABP FP inh: 8; MT1-MMP act inh: -1; eIF4H inh: -12; MT1-MMP act inh RFP: 1

How did CC1(C)Cc2c(cnn2-c2ccc(F)cc2)C(NC(=O)CCN2CCCCO2)C1 (stereo not drawn) do in these assays?
CSC inhib: -4; Rce1 inh: inactive; Yeast UUG start: -16; PABP FP inh: 1; MT1-MMP act inh: 0; eIF4H inh: -16; MT1-MMP act inh RFP: 3

What do the screens show for `Cc1ccc(CNC(=O)CCC(=O)N2CC(C)Sc3ccccc32)cc1` (stereo not drawn)?
CSC inhib: -2; Rce1 inh: inactive; Yeast UUG start: 18; HIV Env fusion: 10; PABP FP inh: -3; MT1-MMP act inh: -3; eIF4H inh: -16; MT1-MMP act inh RFP: 4

Results for C=CCn1c(COc2ccccc2)nnc1SCc1ccc(C#N)cc1 ?
CSC inhib: -13; Rce1 inh: inactive; Yeast UUG start: -8; PABP FP inh: 14; MT1-MMP act inh: 2; eIF4H inh: -11; MT1-MMP act inh RFP: -2

How did Cc1ccc(C)c(CN2CCNC2=O)c1 do in these assays?
CSC inhib: -7; Rce1 inh: inactive; Yeast UUG start: -14; HIV Env fusion: -20; PABP FP inh: 19; MT1-MMP act inh: 2; eIF4H inh: -7; MT1-MMP act inh RFP: 1

How did C1=Nc2ccccc2CN1c1ccccc1 do in these assays?
CSC inhib: -4; Rce1 inh: inactive; PABP FP inh: -6; MT1-MMP act inh: 6; eIF4H inh: 2; MT1-MMP act inh RFP: 6
